Proteasome disasm – blocks ATP-dependent breakdown of the yeast 26S proteasome; 0.2% of 24,000 active; anti-FLAG beads, GFP-proteasome disassembly, flow cytometry; inhibition of disassembly, % (no concentration beside the values);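 active = above 40%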;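 also: plate controls were ATP control with full disassembly for no effect and ATP-gamma-S intact proteasomes for full effect; higher percent means more bead fluorescence retained so stronger block of disassembly; stock transfer was 100 nL into about 10 µL; wells with too few beads may also be inconclusive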
VCAM-1 up – enhancers of VCAM-1 display on endothelial cells, cell-based, plate reader, pooled HUVEC, TNFa stimulus (AID 455); HUVEC TNFa-induced VCAM-1 immunofluorescence, plate reader; numbers were filed only for top-ranked candidate wells; augmentation, % at 5 µM; 0.2% of 10,000 active;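 active = a compound raising TNF-alpha-driven VCAM-1 surface staining, with its hit status upheld on visual or statistical review; inactive = the rest, including hits rejected on review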;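 also: 0% = TNFa with vehicle and 100% = strongest image-checked hit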
* = called active by the depositor; i = inactive; . = no result given. Not all compounds are listed. The share of hits here may be higher or lower than overall.

SMILES	Proteasome disasm	VCAM-1 up
CSc1nc2c(c(=O)n1-c1ccc(F)cc1)SCC2	2.5	.
CCC1Oc2ccccc2N(CC(=O)NCCCN2CCCCC2CC)C1=O (configuration not stated)	1.4	.
CC(=O)N(C(C)=O)c1ncc2c([nH]c3ccccc32)c1C#N	-0.2	i
COC(=O)c1cc(NC2c3ncccc3C(=O)N2Cc2ccccc2)cc(C(=O)OC)c1 (configuration not stated)	-0.7	.
CN(C1CCS(=O)(=O)C1)S(=O)C12CC3CC(CC(C3)C1)C2 (configuration not stated)	-0.9	i
Cc1ccc(S(=O)(=O)N2C(=O)CCC2C(=O)Nc2ccc3c(c2)OCCO3)cc1 (configuration not stated)	2.5	i
Cn1c(=O)[nH]c(=O)c2c1nc(N1CCc3ccccc3C1)n2CCSc1nc2ccccc2s1	-0.1	i
O=C(Cn1cccc1)NCc1cccs1	-1.4	.
Cc1ccc(NCC(O)C(O)C(O)CO)cc1C (configuration not stated)	-0.7	i
CCOC(=O)CSc1nc(C)cc(Oc2ccc(=O)n(C)n2)n1	-0.1	.
Nc1nonc1-c1nc2ccccc2n1Cc1ccc(F)cc1Cl	0.8	.
Cc1noc(NS(=O)(=O)c2ccc(NC(=O)CCC3CCCC3)cc2)c1C	-1.2	i
CCCCP(=O)(CCCC)c1ccccc1C(=O)O	0.8	i
Cn1c(=O)c2c(nc(CN3CCOCC3)n2CC(O)CO)n(C)c1=O (configuration not stated)	-1.1	i
CCOC(=O)c1cc2c(=O)n3cccc(C)c3nc2n(CCOC)c1=NC(=O)c1ccncc1	1.3	i
CCOC(=O)Cn1c2c(c(=N)c3ccccc31)CCC2	0.0	i
CN(C)c1nc(Nc2ccc(Cl)cc2)nc(OCC#N)n1	5.1	i
COC(=O)c1cc(NC(=O)C2CC=CCC2C(=O)O)cc(C(=O)OC)c1 (configuration not stated)	2.2	i
CCOC(=O)c1nc(N2CCN(C(=O)OCC)CC2)c2c3c(sc2n1)CCCC3	2.2	.
O=C(CCCN1C(=O)c2ccccc2C1=O)N1CCC(c2ccccc2)C1 (configuration not stated)	-2.7	i
COc1ccc(C2C(C(=O)NCc3ccccn3)c3cc(OC)c(OC)cc3C(=O)N2C)cc1 (configuration not stated)	-1.4	.
CCc1c(C)nc2ncnn2c1N1CCC(C(=O)NCc2cccc(OC)c2)CC1	0.2	i
COc1ccccc1N(CN1CCCC1=O)C(=O)c1c(F)cccc1Cl	-0.4	i
Cc1[nH]c(=O)cc2ccccc12	-0.4	.
O=C(NC(C(=O)N1CCCC1C(=O)O)=C1CCCCC1)c1ccccc1 (configuration not stated)	0.9	.
COc1cc(OC)cc(-c2nc3cc(C)ccc3o2)c1	0.3	i
COC(=O)C1CCN(C(=O)c2sc3nc(-c4ccccc4)cn3c2C)CC1	-0.9	.
Nc1ccc2c(c1)CCC2=O	0.2	.
Cc1cccc(C(=O)O)c1NC(=O)c1ccc(F)cc1	-4.0	i
CN(C)c1cccc(C(=O)OCC(=O)NCc2ccco2)c1	-0.5	i
COc1ccc(C2C3=C(CCCC3=O)Nc3nc(-c4cc(OC)c(OC)c(OC)c4)nn32)cc1OC (configuration not stated)	0.8	.
COC(=O)c1ccc(CNC(=O)CSc2nc3sc(C)c(C)c3c(=O)n2C)o1	-0.9	i
COc1ccc(-c2cnnn2-c2ccc(N)cc2)cc1OC	3.5	.
COc1ccc(S(=O)(=O)NCC(c2cccnc2)N2CCN(C)CC2)cc1C (configuration not stated)	2.1	i
COCCn1cc(C(=O)NCCCN2CCC(C)CC2)c2c3ccccc3n(C)c2c1=O	-1.9	i
CC(=O)OC[C@H]1O[C@@H](n2ccc(=O)[nH]c2=S)C(OC(C)=O)C1OC(C)=O (some centres not stated)	1.4	.
CCOc1ccccc1NC(=O)CN(c1cc(C)cc(C)c1)S(=O)(=O)c1c(C)noc1C	0.1	.
Cc1oc2nc(SCCCC(=O)NCCCO)nc(N)c2c1C	-3.4	i
CCc1ccccc1NC(=O)c1cnc2n(c1=O)CCS2	-0.3	i
Cc1ccc(N2C(=O)c3ccccc3C2O)nc1 (configuration not stated)	1.3	i
Cn1cc(CN2CCN(c3ccccc3)CC2)c2ccccc21	-0.1	.
NC(=O)CSc1cn(CCNC(=O)c2cccs2)c2ccccc12	-0.4	i
COc1cc(OC)cc(-c2nc3nc(C)c(CCC(=O)O)c(C)n3n2)c1	-1.3	i
CCCCN(C)CCCNC(=O)CS(=O)Cc1nc(-c2ccc(OC)c(OC)c2)oc1C (configuration not stated)	0.0	.
Cc1cccc(N2CCN(C(=O)c3cc4c(=O)[nH]c5ccccc5c4n3C)CC2)c1C	7.3	i
O=C(O)COc1ccc2occ(C(=O)c3ccccc3)c2c1	-4.4	i
CCC(=O)Nc1ccc(S(=O)(=O)N2CCc3ccccc3C2)cc1	0.7	.
O=C(CS(=O)(=O)c1cn(Cc2cccc(F)c2)c2ccccc12)N1CCCCC1	-0.1	.

2 records picked at random from the list so far:
SMILES	Proteasome disasm	VCAM-1 up
COC(=O)C1CCN(C(=O)c2sc3nc(-c4ccccc4)cn3c2C)CC1	-0.9	.
CC(=O)OC[C@H]1O[C@@H](n2ccc(=O)[nH]c2=S)C(OC(C)=O)C1OC(C)=O (some centres not stated)	1.4	.

Taken from above for reference:
SMILES	Proteasome disasm	VCAM-1 up
CCOC(=O)c1cc2c(=O)n3cccc(C)c3nc2n(CCOC)c1=NC(=O)c1ccncc1	1.3	i
CCOC(=O)Cn1c2c(c(=N)c3ccccc31)CCC2	0.0	i
CN(C)c1nc(Nc2ccc(Cl)cc2)nc(OCC#N)n1	5.1	i
COC(=O)c1cc(NC(=O)C2CC=CCC2C(=O)O)cc(C(=O)OC)c1 (configuration not stated)	2.2	i
CCOC(=O)c1nc(N2CCN(C(=O)OCC)CC2)c2c3c(sc2n1)CCCC3	2.2	.
O=C(CCCN1C(=O)c2ccccc2C1=O)N1CCC(c2ccccc2)C1 (configuration not stated)	-2.7	i
COc1ccc(C2C(C(=O)NCc3ccccn3)c3cc(OC)c(OC)cc3C(=O)N2C)cc1 (configuration not stated)	-1.4	.
CCc1c(C)nc2ncnn2c1N1CCC(C(=O)NCc2cccc(OC)c2)CC1	0.2	i
COc1ccccc1N(CN1CCCC1=O)C(=O)c1c(F)cccc1Cl	-0.4	i
Cc1[nH]c(=O)cc2ccccc12	-0.4	.
O=C(NC(C(=O)N1CCCC1C(=O)O)=C1CCCCC1)c1ccccc1 (configuration not stated)	0.9	.
COc1cc(OC)cc(-c2nc3cc(C)ccc3o2)c1	0.3	i
COC(=O)C1CCN(C(=O)c2sc3nc(-c4ccccc4)cn3c2C)CC1	-0.9	.
Nc1ccc2c(c1)CCC2=O	0.2	.

Further records
SMILES	Proteasome disasm	VCAM-1 up
COCCn1c(C)cc(C(=O)CSc2nnc3ccccn23)c1C	0.3	.
COc1ccccc1CNC(=O)C1CCCN1S(=O)(=O)c1cccc2cccnc12 (configuration not stated)	-0.2	.
CCCC(NC(=O)CNC(=O)C(C)(C)C)C(=O)O (configuration not stated)	-1.6	i
CSCSC1=C(C#N)C(c2ccc(Cl)cc2)C(C(C)=O)=C(C)N1 (configuration not stated)	0.5	i
CCOC(=O)Cn1c(=O)oc2cc(S(=O)(=O)Nc3cc(Cl)ccc3OC)ccc21	2.6	.
O=C(Cn1cccc1C(=O)c1ccccc1)NCCN1CCCCCC1	1.4	.
COc1ccc(CCNC(=O)CC(NS(=O)(=O)c2ccc(NC(C)=O)cc2)C(C)C)cc1OC (configuration not stated)	0.4	.
CC(O)Cn1cnc2c1c(=O)n(C)c(=O)n2C (configuration not stated)	-1.1	i
Cc1c(N=C2SCC(=O)N2c2c(C)n(C)n(-c3ccccc3)c2=O)c(=O)n(-c2ccccc2)n1C	-1.1	i
Cn1c(=O)c2c(nc(CN3CCN(c4ccccc4F)CC3)n2CCN2CCOCC2)n(C)c1=O	0.0	i
O=C(O)C1CC(=O)N(Cc2ccc(F)cc2)C1 (configuration not stated)	-1.1	.
COCCNC(=O)CN1C(=O)CC(C)(C)S(=O)(=O)c2ccccc21	0.1	.
COc1ccc(-c2cn3c(C)c(C(=O)Nc4cc(NC(C)=O)ccc4OC)sc3n2)cc1	2.4	i
Cn1c(Cn2c(=O)sc3ccccc32)nnc1SCC(=O)N1CCCc2ccccc21	2.9	.
CCCCC(=O)NCCc1cc2c(C)ccc(C)c2[nH]c1=O	0.2	i
O=C(c1ccc2c(=O)n(C3CCCC3)c(=S)[nH]c2c1)N1CCN(C2CCCCC2)CC1	-2.5	.
Cc1ccccc1-c1nc(CS(=O)(=O)CC(=O)N2CCc3ccccc3C2)c(C)o1	0.4	.
O=C(c1ccc(CNc2c(N3CCCC3)c(=O)c2=O)cc1)N1CCc2ccccc2C1	-0.9	i
CC1Cn2c(nnc2-c2ccccc2O)S1 (configuration not stated)	-0.4	.
O=C(Nc1ccc(-c2nc3ncccc3o2)cc1)c1ccc(Br)o1	5.0	i
O=C(NCc1ccco1)c1cc2cc3ccc(Cl)cc3nc2o1	-0.7	i
O=C(CCn1c(=O)[nH]c2ccccc2c1=O)N1CCN(c2cccc(C(F)(F)F)c2)CC1	-0.6	.
CC1(C)OC(=O)N(c2ccccn2)C1(C)O (configuration not stated)	-0.5	.
O=C1CSC(=Nc2ccc(O)cc2)N1c1ccc(O)cc1	1.5	i
CCOC(=O)N1CCN(c2cc(=O)n(-c3ccc(OC)cc3)c(=O)[nH]2)CC1	0.8	.
CCCCN(CC)S(=O)(=O)c1ccc(C(=O)Nc2nnc(COC)o2)cc1	1.1	.
COc1cccc(C2CC(c3ccc(Cl)cc3)Nc3nc(N)nn32)c1 (configuration not stated)	0.3	.
c1cc2c(cc1Cn1cnnn1)OCO2	0.7	i
Cn1cccc1CNC(=O)Nc1ccc(Cl)c(Cl)c1	3.2	.
C#CC1(O)CC(C)N(C)C(C)C1 (configuration not stated)	-2.4	i
CCn1c(SCC(=O)Nc2ccc3c(c2)OCO3)nnc1-c1cnccn1	1.1	i
COc1ccccc1S(=O)(=O)Cc1ccc(C(=O)NC(C)c2ccc3c(c2)OCCO3)o1 (configuration not stated)	2.9	.
COC(=O)c1ccc(NC(=O)C(C)N2C(=O)c3ccccc3C2=O)cc1 (configuration not stated)	-0.9	i
CC(=O)Nc1ccc(NC(=O)Cn2cnc3c(cnn3C(C)(C)C)c2=O)cc1	-1.2	i
CCSc1nnc(Cc2cc(=O)[nH]c(=O)[nH]2)n1-c1cc(C)ccc1C	-0.7	.
CCCCc1c(O)nc(N2CCN(Cc3ccccc3)CC2)[nH]c1=O	16	i
COC(=O)c1cc(=O)n2c(-c3ccc(OC)cc3)csc2n1	-2.6	30
CCCNC(=O)Nc1ccccc1C(=O)Nc1ccc(OC)cc1	0.8	i
Cc1nc2cc(S(=O)(=O)N3CCC(C(=O)O)CC3)ccc2n1C1CCCC1	3.3	.
CC(C)Oc1ccc2nnnn2n1	-0.5	.
COc1cc(C2N(c3ccccn3)C(=O)C3CCCN32)cc(OC)c1OC (configuration not stated)	0.0	.
Cc1ccc(S(=O)(=O)NCCN=C(CN2CCCC2)NS(=O)(=O)c2ccc(C)cc2)cc1	2.1	.
COC(=O)c1cccc(NC(=O)CN2CCN(Cc3ccccc3)CC2)c1	0.0	i
CCOC(=O)c1cnn(CCOC(=O)C2CC2)c1NC(=O)C1CC1	-0.7	.
Cc1ccc(NC(=O)N(Cc2ccco2)C(C)c2ccco2)cc1C (configuration not stated)	2.5	.
CSc1nc2c(c(=O)n1-c1ccccc1)SCC2	8.2	.
COc1ccc(NC(=O)CC2CCCCC2)cc1OC	-3.0	i
O=C(CCn1c(=O)oc2ccccc21)N1CCCCCC1	-0.5	i
O=C(CCn1c(=O)oc2ccccc21)NCCCN1CCN(c2ccc(F)cc2)CC1	0.0	.
CCOC(=O)CNC(=O)c1nn(-c2ccc(OCC)cc2)c(=O)c2ccccc12	-0.2	.
COc1ccc2sc(NC(=O)c3ccco3)nc2c1	2.8	.
CCOC(=O)c1c(C)c(C(=O)NC(C)COC)c(C)n1CC (configuration not stated)	-1.4	.
CCOc1ccc(N2C(=O)c3cccnc3C2Nc2ccc(C)cc2)cc1 (configuration not stated)	2.6	.
CCCS(=O)(=O)N1CCCC(C(=O)NCCN(CC)CC)C1 (configuration not stated)	-0.3	.
Cn1c(C(=O)N2CCCC(C(=O)N3CCN(C(=O)c4ccco4)CC3)C2)cc2sccc21 (configuration not stated)	-1.8	.
Cc1ccc(NC(=O)C2(N(C(=O)Cn3nnnc3N)c3ccc(C)cc3)CCCCC2)cc1	-1.9	.
CC1CC(C)CN(C(=O)C2CCCN(S(=O)(=O)c3cccc4nonc34)C2)C1 (configuration not stated)	4.8	.
Cc1noc(C)c1S(=O)(=O)N(CC(=O)Nc1ccc2c(c1)OCO2)c1ccc(C(C)C)cc1	2.2	.
COc1ccc(CCNC(=O)CN(c2ccc(C)cc2)S(=O)(=O)c2c(C)noc2C)cc1OC	-1.6	.
CCCOc1ccc(S(=O)(=O)NCCCN2CCOCC2)c2ccccc12	0.3	i
The list continues:
SMILES	Proteasome disasm	VCAM-1 up
O=C(CSc1ccc(Cl)cc1)OCc1nnc(-c2ccccc2)o1	-1.9	i
CCN1CCN(C(=O)C2c3cc(OC)c(OC)cc3C(=O)N(C)C2c2ccc(SC)cc2)CC1 (configuration not stated)	2.1	.
CCOC(=O)N1CCN(C(=O)c2oc(=O)c3ccccc3c2-c2ccc(C)cc2)CC1	0.1	.
CCC1Sc2ccccc2N(CC(=O)NCc2ccc3c(c2)OCO3)C1=O (configuration not stated)	-0.8	.
CCN1CCN(c2c(Cl)cccc2NC(=O)c2ccc3c(c2)OCCO3)CC1	1.6	i
Cc1ccc(-c2nn(CC(=O)NCc3ccco3)c(=O)c3ccccc23)cc1	-0.8	.
Cc1ccc(OCc2nnc(SCC(=O)N3CCOCC3)n2C)cc1	-6.7	i
O=C(CCn1c(=O)sc2ccccc21)Nc1cccnc1	1.9	i
CCCn1c(C(C)NC(=O)c2ccccc2)nc2ccccc21 (configuration not stated)	-1.8	.
Cc1ccc(-n2ncc3c(=O)n(-c4ccc(C)c(C)c4)c(C)nc32)cc1	-0.1	.
